# Source: PubChem BioAssay
# CtBP-E1A inh = qHTS Assay for Inhibitors of the CtBP/E1A Interaction | CtBP / adenovirus E1A interaction (AlphaScreen) | AlphaScreen GST-E1A/His-CtBP binding, 1536-well; hits give low values; control for the full effect not named in the record | activity change, % (concentration not given with the values) | 0.49% of 340,000 active; in the data active means activity change below about -65%; inconclusive means about -30% to -65%; inactive means above about -30%; note: % is set by controls: 0 for no effect and ±100 for the full control effect
#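 Homogeneous bead-based format: GST-tagged E1A captured on glutathione donor beads, His-tagged CtBP on nickel acceptor beads; compounds precede bead addition by 2 h at 37 °C.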
# D2 potentiator = Beta-Arrestin HTS for Positive Allosteric Modulators of the Human D2 Dopamine Receptor: Potentiators; D(2) dopamine receptor (Homo sapiens), P14416; DiscoveRx D2 beta-arrestin cells, luminescence, 90 min; 100% = 57 uM dopamine signal; potentiation, % (concentration not given with the values); 0.23% of 360,000 active; AID 624464, 2012; active = potentiation of 50% or more; inconclusive = 30% to 50%; inactive = 30% or less;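 note: compound concentration not given in the record; tested on top of an EC20 dose of dopamine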
#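 PathHunter beta-arrestin assay in DiscoveRx D2 cells. Compounds were added with an EC20 of dopamine (50 nM final) for 90 min at 37 deg C. Luminescence was read 1 h after detection reagent, with 57 uM dopamine as the EC100 control.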
# gsp antag = qHTS for Antagonists of gsp, the Etiologic Mutation Responsible for Fibrous Dysplasia/McCune-Albright Syndrome: qHTS; gsp-mutant cells, cAMP HTRF, 30 min; control for the full effect not named in the record; Potency, µM (titrated, usually from 76.9 µM), inactives show top-dose activity change, negative = inhibition, most hits filed as inhibitors; 0.4% of 340,000 active; AID 624288, 2012; active = falling curve of any shape with a large fitted effect; inconclusive = falling curve, mostly with a smaller effect; inactive = flat or rising curve; cell line not stated here;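 note: intracellular cAMP measured with PDE inhibitor Ro 20-1724 present during compound exposure; potency is the fitted concentration of half-maximal effect; % is set by controls: 0 for no effect and ±100 for the full control effect; nearly all actives have a fitted effect of over 65% in size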
#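 Cells, 2000/well, grown 16–24 h in DMEM 10% FBS with 0.5 mg/ml G418, then compounds plus […] (300 uM addition stock), 30 min at 37C. cAMP read by HTRF (cAMP-d2 and anti-cAMP antibody-K in lysis buffer) after 30 min RT.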
# gsp agonist = qHTS for Agonist of gsp, the Etiologic Mutation Responsible for Fibrous Dysplasia/McCune-Albright Syndrome: qHTS; gsp mutant cells, cAMP HTRF, 30 min; control for the full effect not named in the record; Potency, µM (highest dose often 76.9 µM), for inactives: at the highest dose activation (cAMP increase), most hits filed as activators; 0.13% of 340,000 active; active = well fitted activation curve with a large enough effect; inconclusive = small, poorly fitted or top-dose-only effect, or another doubt; inactive = no such curve, though single readings can be large or run the other way; cell line not stated here;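 note: phosphodiesterase inhibitor Ro 20-1724 added with compounds to block cAMP breakdown; potency is the fitted concentration of half-maximal effect; nearly all actives have a fitted effect of over 60% in size; about a fifth of the inactives were tested at one dose only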
#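 Cells in DMEM/10% FBS with G418 were pretreated with compounds in DMSO plus […] (300 uM stock) for 30 min at 37C. cAMP was measured by HTRF (cAMP-d2 plus anti-cAMP antibody-K) after 30 min at room temperature.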
# D2 ag = Beta-Arrestin HTS for Positive Allosteric Modulators of the Human D2 Dopamine Receptor: Agonists; DiscoveRx PathHunter D2 beta-arrestin, luminescence, 90 min; 100% = 57 uM dopamine signal; activation, % (concentration not given with the values); 0.084% of 360,000 active; AID 624465, 2012; in the data active = activation above about 40%; inconclusive = about 15% to 40%; inactive = below about 15%; note: compound concentration not given in the record; the text of the record calls up to 30% inactive
#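 Agonist mode: compounds alone added to overnight-plated D2 PathHunter cells for 90 min at 37 C, with 57 uM final dopamine (EC100) defining full response. Beta-arrestin recruitment detected by chemiluminescent reagent, read after 1 h at ambient temperature.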
# Six1-Eya2 inh = qHTS Assay for Inhibitors of the Six1/Eya2 Interaction. Homeobox protein SIX1 (Homo sapiens) + Protein phosphatase EYA2 (Homo sapiens), …. AlphaScreen GST-Six1/His-Eya2 binding, biochemical; hits give low values; control for the full effect not named in the record. activity change, % (concentration not given with the values). 0.56% of 360,000 active; in the data active = activity change below about -65%; inconclusive = about -30% to -65%; inactive = above about -30%; note: % is set by controls: 0 for no effect and ±100 for the full control effect
# Target sequence (O00167 whole entry, looked up): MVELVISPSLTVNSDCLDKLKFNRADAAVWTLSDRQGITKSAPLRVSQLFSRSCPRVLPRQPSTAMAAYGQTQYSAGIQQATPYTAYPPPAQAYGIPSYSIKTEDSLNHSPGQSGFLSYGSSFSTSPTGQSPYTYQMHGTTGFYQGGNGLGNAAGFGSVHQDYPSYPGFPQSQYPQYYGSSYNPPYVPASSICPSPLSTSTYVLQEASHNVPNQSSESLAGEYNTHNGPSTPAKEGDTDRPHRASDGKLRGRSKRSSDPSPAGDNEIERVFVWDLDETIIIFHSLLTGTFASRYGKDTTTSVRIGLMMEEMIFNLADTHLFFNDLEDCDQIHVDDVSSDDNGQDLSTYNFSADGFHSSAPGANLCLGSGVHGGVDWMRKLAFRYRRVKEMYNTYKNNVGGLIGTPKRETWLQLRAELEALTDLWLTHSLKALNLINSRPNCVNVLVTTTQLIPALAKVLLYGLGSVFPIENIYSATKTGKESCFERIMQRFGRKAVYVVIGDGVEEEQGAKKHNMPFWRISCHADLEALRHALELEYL
# Target sequence (Q15475 whole entry, looked up): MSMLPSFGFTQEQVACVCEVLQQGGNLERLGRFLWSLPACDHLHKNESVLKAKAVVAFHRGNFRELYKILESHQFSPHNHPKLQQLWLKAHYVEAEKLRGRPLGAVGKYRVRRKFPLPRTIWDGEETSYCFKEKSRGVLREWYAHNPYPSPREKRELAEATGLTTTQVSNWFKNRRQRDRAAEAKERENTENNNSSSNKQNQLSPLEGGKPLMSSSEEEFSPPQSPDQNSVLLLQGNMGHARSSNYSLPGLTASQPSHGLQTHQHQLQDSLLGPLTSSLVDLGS
#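 AlphaScreen with GST-Six1 and His-Eya2 (5X mix: 250 nM and 500 nM), glutathione donor and nickel acceptor beads; buffer 50 mM Tris pH 8.0, 300 mM NaCl, 1 mM TCEP; 1 h at 37 C in the dark.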
# Numbers without * were called inactive; ? = inconclusive; . = no result given; [ ] = another dose, or the depositor's remark.
# Sample of the layout, 2 compounds:
SMILES,CtBP-E1A inh,D2 potentiator,gsp antag,gsp agonist,D2 ag,Six1-Eya2 inh
COc1ccc(Cl)cc1NC(=O)CSc1sc2c(O)cc(=O)[nH]c2c1C#N,-1,-7,10%,0%[15.4 µM],-1.9,-9
COc1cccc(C2=CC(=O)C[C@H](c3ccc(Cl)cc3)C2)c1OC,-6,5,-2%,?,0.1,-11

# The whole of this part, previewed entries included:
SMILES,CtBP-E1A inh,D2 potentiator,gsp antag,gsp agonist,D2 ag,Six1-Eya2 inh
COc1ccc(Cl)cc1NC(=O)CSc1sc2c(O)cc(=O)[nH]c2c1C#N,-1,-7,10%,0%[15.4 µM],-1.9,-9
COc1cccc(C2=CC(=O)C[C@H](c3ccc(Cl)cc3)C2)c1OC,-6,5,-2%,?,0.1,-11
COc1cc(C(=S)N2CCOCC2)ccc1OC(=O)Cc1ccc(F)cc1,0,1,-2%,7%,-4.6,-18
Cc1ccc(S(=O)(=O)n2c(C)nc3ccccc32)cc1,-3,-1,-6%,-11%,-5.0,1
CC(C)COC(=O)c1ccc(N2C(=O)c3ccccc3C2=O)cc1,2,-5,-12%,23%,3.3,4
CNC[C@H]1Oc2ccc(NC(=O)C3CCCCC3)cc2CC(=O)N([C@H](C)CO)C[C@@H]1C,0,-1,-3%,.,-0.4,0
CC(=O)c1cc(CN2CCN(C3CCCCC3)C(CCO)C2)cs1 (stereo not drawn),0,-16,5%,-1%[15.4 µM],4.0,-2
CCO[C@H]1OC(C(=O)N2CCN(C)CC2)=C[C@@H](c2ccc3c(c2)OCO3)[C@@H]1CCCO,-24,-9,8%,-28%,-2.4,7
Cc1ccc(Oc2ccc(Cl)cc2NC(=O)c2cnccn2)cc1,1,-15,6%,-28%,-1.8,-2
O=C(Nc1ccccc1[N+](=O)[O-])C1COc2ccccc2O1 (stereo not drawn),?,-1,0%,1%[15.4 µM],-5.1,?
Fc1ccc(NC(=S)Nc2cccc3cnccc23)cc1,5,?,-20%,3%[15.4 µM],10,1
O=C(NC1CC1)c1ccc2c(c1)N(Cc1ccc(Cl)cc1)CCS2,8,-10,?,?,2.4,-1
CC(=O)Nc1ccc(NC(=O)CCCc2c[nH]c3ccccc23)cc1,-1,-5,-2%,1%,-1.3,3
COc1ccccc1-c1nc(C#N)c(N2CCCCCC2)o1,-12,-4,-15%,9%,-1.3,-13
O=C(CCCn1cc([N+](=O)[O-])cn1)Nc1cccnc1,4,0,8%,20%[15.4 µM],2.2,0
CCOC(=O)C1CCCN(Cc2ccc(OCC)cc2)C1 (stereo not drawn),3,-11,3%,3%,-1.9,2
CCC(C)N(C(=O)Cn1nnc2ccccc21)C(C(=O)NCc1ccco1)c1cccc(OC)c1 (stereo not drawn),1,0,-3%,0%,-1.2,4
CC1(C(=O)NS(=O)(=O)C2CC2)CCN(C(=O)c2cc(F)cc(F)c2)C1 (stereo not drawn),8,-3,.,.,-2.0,6
O=C(C[C@H]1C/C=C\CCCCC(=O)OC[C@H]2CCCN2C1=O)N[C@H](CO)Cc1ccccc1,6,-2,12%,.,-0.3,0
N#C/C(N=Nc1ccccc1O)=N\Nc1ccccc1O,-82*,-15,35µM*,.,-8.0,-70*
O=C(NCc1ccccc1)c1onc(CSc2ccc(F)cc2)c1C(=O)NCCCN1CCOCC1,-6,-14,-1%,22%,0.0,-9
Cn1c(N)c(C(=O)COC(=O)c2ccccn2)c(=O)n(C)c1=O,-21,-16,.,14%[15.4 µM],-1.8,8
CC(=O)c1cccc(-c2ccnc3c2CC(C(=O)Nc2ccc(Cl)c(C(F)(F)F)c2)O3)c1 (stereo not drawn),-11,-5,.,.,9.4,-23
NC(=O)C[n+]1cccc(/C=N/O)c1,2,2,-15%,9%[15.4 µM],-3.8,-11
COCC(C)n1c(SCc2ccc(C(=O)OC)cc2)nc2ccccc2c1=O (stereo not drawn),-5,4,-2%,-8%[15.4 µM],0.6,2
Cn1c(CN2CCOCC2)nnc1SCC(=O)Nc1cccc(C(F)(F)F)c1,24,11,-11%,27%[15.4 µM],-2.6,2
O=C(Nc1ccc(OCc2ccccc2)cc1)c1cccc([N+](=O)[O-])c1,-2,-7,9%,19%,3.8,5
O=C(NC1CC1)C(Cc1ccccc1)NS(=O)(=O)c1ccccc1F (stereo not drawn),7,6,0%,-17%,-0.8,3
Cc1ccc(C(=O)CC(C(=O)O)n2ccc(C)n2)cc1 (stereo not drawn),4,-5,-7%,-3%,-2.6,-6
Cc1cc(C)nc(NS(=O)(=O)c2ccc(NC(=S)NC(=O)c3ccco3)cc2)n1,12,-10,-6%,0%[15.4 µM],-2.0,-4
CCC(C)NC(=O)CNC(=O)Cn1c(C)cc2ccccc2c1=O (stereo not drawn),4,-5,14%,3%,-0.6,6
O=C(CCCN1C(=O)c2ccccc2C1=O)Nc1nccs1,-1,-5,9%,-1%,0.5,-1
O=C1N=C(N2CCOCC2)S/C1=C/c1ccc(-c2ccccc2Cl)o1,-5,-3,-2%,1%,?,9
CC1(C)CC(=O)N(Cc2ccccc2)C(=O)C1,2,-3,10%,27%,-1.3,4
CCOC(=O)CSc1nnc(CNC(=O)c2cccs2)n1-c1cc(OC)ccc1OC,4,-7,5%,2%,1.3,-2
O=C(CCC(=O)NNC(=O)c1ccccc1[N+](=O)[O-])NCc1ccccc1,.,-5,16%,-1%[15.4 µM],-0.4,9
CC1=CC(C)(C)NC(=S)N1c1cccc2ccccc12,1,-27,12%,-20%,0.6,-1
O=C(CC1C(=O)NCCN1Cc1cccc(Oc2ccccc2)c1)NCCn1cccn1 (stereo not drawn),1,-2,3%,9%,-4.8,3
COc1cccc(-n2c(SCC(=O)NC3CC3)nc3ccccc3c2=O)c1,-9,-15,.,4%,-3.6,4
CCOc1ccccc1NC(=O)Nc1cccc(NC(C)=O)c1,-1,-4,-3%,-19%,-4.6,-10
O=C(CCN1C(=O)c2ccccc2C1=O)Nc1ccc2c(c1)OCCO2,-17,-10,2%,-15%,-1.2,-3
c1ccc2c(c1)N1CCCN=C1N2CCN1CCCCC1,1,-2,1%,-24%,-1.0,5
COc1ccccc1S(=O)(=O)N1CCC(C(=O)O)(c2ccccc2)CC1,0,-4,-21%,16%[15.4 µM],-7.9,12
O=C(NNC(=S)NCc1ccco1)c1cccs1,-2,-9,1%,?,-1.1,4
CC1=CCn2c(=O)c3ccccc3c(=O)n2C1,0,-9,0%,3%,-4.3,4

# Nothing new here: 2 of the compounds above.
SMILES,CtBP-E1A inh,D2 potentiator,gsp antag,gsp agonist,D2 ag,Six1-Eya2 inh
O=C(NNC(=S)NCc1ccco1)c1cccs1,-2,-9,1%,?,-1.1,4
CC1=CCn2c(=O)c3ccccc3c(=O)n2C1,0,-9,0%,3%,-4.3,4

# More compounds:
SMILES,CtBP-E1A inh,D2 potentiator,gsp antag,gsp agonist,D2 ag,Six1-Eya2 inh
Cc1ccc(C(C(=O)NCc2ccco2)N(CCc2ccccc2)C(=O)Cn2nnc3ccccc32)o1 (stereo not drawn),-9,-12,-16%,-24%,-4.1,-14
O=C(O)c1ccccc1C(=O)Nc1ccc(Oc2cccc3ccccc23)cc1,-5,5,-9%,-23%,1.0,-10
COc1cccc(NCc2ccc([N+](=O)[O-])s2)c1,-7,50*,6%,23%,9.7,-14
COc1cc(/C=N/Nc2snc(SC)c2C#N)ccc1O,0,27,-1%,-28%,1.8,-2
C[C@H]1CN([C@@H](C)CO)C(=O)CCCn2cc(nn2)CO[C@@H]1CN(C)S(=O)(=O)c1ccc2ccccc2c1,4,-1,.,?,-4.4,-2
CCN(Cc1cc2cc(OC)ccc2[nH]c1=O)C(=O)Cc1ccc(OC)cc1,5,-14,-5%,13%,0.0,7
COc1ccc2oc(=O)c(C(=O)O)cc2c1,2,3,-1%,5%,1.1,2
CC1CCCC(C)N1NC(=O)c1ccc(Cl)c(S(N)(=O)=O)c1 (stereo not drawn),0,-3,-4%,.,-4.1,1
COc1cc(C(=O)NC(=S)N(CCc2ccccc2)CCc2ccccc2)cc(OC)c1OC,-2,-43,-19%,-10%,-6.3,-17
COc1ccccc1NC(=O)c1cc(C)oc1C,-18,-1,1%,-2%,3.2,0
O=C(NC1CCCCCC1)c1cccc(S(=O)(=O)N2CCOCC2)c1,7,-7,7%,17%,-1.4,8
Cc1ccc(NC(=O)C2CCCN2C(=O)Oc2ccccc2)c(C)c1 (stereo not drawn),-24,-22,-4%,0%[15.4 µM],-4.9,-11
O=C(Oc1cccc(-c2cnc3ccccc3n2)c1)c1ccco1,-6,-24,-1%,-1%,0.6,-19
COc1cc(C=O)ccc1OCc1cn(CC(=O)c2ccc(O)cc2)nn1,-4,5,-1%,.,1.5,-6
O=C(O)c1ccc(CSCc2ccco2)cc1,5,-13,-4%,-15%,-3.8,-2
O=C(NCC(=O)N1CCN(c2ccc([N+](=O)[O-])cc2)CC1)c1ccco1,0,-3,8%,?,-0.4,-1
O=C1C(=O)N(CCCN2CCOCC2)C(c2ccc(F)cc2)/C1=C(/O)c1ccccc1 (stereo not drawn),.,-2,9%,?,-1.6,-2
CC(C)Cc1nc2oc3c(NCc4cccnc4)ncnc3c2c2c1CCC2,7,-6,-2%,29%,3.1,-2
Cc1nnc(SCC(=O)Nc2cc(C(F)(F)F)ccc2N2CCOCC2)o1,5,-12,-7%,-14%,-1.6,1
O=C(CSc1nc2ccccc2n1CC(=O)N1CCOCC1)N1CCCC1,13,-3,18%,3%,-1.4,6
Cc1ccc2cccc(N=Cc3c(C)[nH]n(-c4ccccc4)c3=O)c2n1,-29,-51,?,13%,-5.5,-28
O=C(CCCN1C(=O)c2cccc3cccc(c23)C1=O)N1CCN(c2ccccn2)CC1,5,-5,-3%,7%,-0.4,-14
COc1ccc(S(=O)(=O)NC2(C(F)(F)F)N=C(c3ccccc3)NC2=O)cc1 (stereo not drawn),.,-8,7%,-89%[inhibitor],2.9,11
Cc1ccc(NC(=O)c2ccc(S(=O)(=O)N3CCOCC3)cc2)c(C)c1,18,-8,8%,10%[15.4 µM],-2.7,26
COc1ccc(C2=NS(=O)(=O)N(C)C(C(=O)Nc3ccc(OC)c(OC)c3)=C2)cc1,-11,-14,-15%,-17%,-2.7,-23
O=C(Nc1ccccc1)c1cc(S(=O)(=O)NCc2ccncc2)ccc1Cl,-2,4,-10%,-13%,1.6,0
